GALR2 agonist: agonists of human galanin receptor 2 (GALR2); O43603; GALR2-expressing cells, agonist activation read-out; activation, %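 (tested at 5 µM)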; 140,000 tested, 0.48% active;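 active = above mean plus 3 SD of all compounds, about 5% in these data, not always enough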;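 note: 0% = vehicle buffer wells and 100% = reference agonist at full effect; tested in CHO reporter cells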
RGS16-Gao: modulates binding between human RGS16 and Galphao; O15492+P09471; 220,000 tested, 0.38% active; binding response (% of control), % at 10 µM; bead-based flow cytometry RGS16-Galphao binding, fluorescence; actives lie on both sides;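 active = below 25% or above 175%, edge rows of some plates excepted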;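 note: Galphao activated by GDP with aluminum fluoride before binding; 100% = wells without compound and 0% = beads without RGS; some results beyond the cut were filed as inactive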
Target sequence (O15492 whole entry, looked up): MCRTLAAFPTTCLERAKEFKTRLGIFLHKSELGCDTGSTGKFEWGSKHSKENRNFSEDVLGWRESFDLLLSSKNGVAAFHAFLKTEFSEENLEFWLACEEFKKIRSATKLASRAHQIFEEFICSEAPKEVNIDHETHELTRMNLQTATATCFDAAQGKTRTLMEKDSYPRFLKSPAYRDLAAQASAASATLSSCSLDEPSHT
Target sequence (P09471 whole entry, looked up): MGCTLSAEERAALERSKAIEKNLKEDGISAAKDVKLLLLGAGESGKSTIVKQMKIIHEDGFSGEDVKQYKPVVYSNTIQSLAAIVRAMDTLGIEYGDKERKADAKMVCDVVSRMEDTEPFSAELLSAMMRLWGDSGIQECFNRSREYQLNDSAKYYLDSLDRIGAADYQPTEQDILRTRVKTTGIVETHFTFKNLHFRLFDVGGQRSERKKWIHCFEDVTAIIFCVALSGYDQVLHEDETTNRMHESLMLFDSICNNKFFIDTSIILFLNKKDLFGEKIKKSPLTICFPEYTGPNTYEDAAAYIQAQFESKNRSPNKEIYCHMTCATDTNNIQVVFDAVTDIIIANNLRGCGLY
HSV replic up: increases HSV replication in cells. HSV replication augmentation in cells, fold increase. maximum fold increase. 220,000 tested, 0.005% active. AID 1956;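 active = peak rise of 1.5-fold or more in the series; tested in PC3 cells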;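 note: first round at 10 µM; read as green reporter fluorescence; hits show the peak of a series up to 25 µM; 1 = signal of infected wells without compound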
INS promoter inh: TRM-6 insulin promoter activity inhibition; TRM-6 cells (human fetal islet line), insulin promoter-eGFP reporter, imaging; reporter expression induced with tamoxifen; inhibition, % at 2 µM; 130,000 tested, 0.9% active; AID 1273;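 active = inhibition above the mean plus 3 SD, with well images judged a real hit on visual review, cut at about 60% in these data, passing the limit was not always enough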
PKD1 inh: blocks activity of human protein kinase D1; Q15139; AID 797; inhibition, %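 (about 10 µM by stock and volumes)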; PKD1 kinase fluorescence polarization assay; 200,000 tested, 0.056% active;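 active = inhibition of 50% or more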;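 note: controls were vehicle for no effect and a reference inhibitor for full effect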
INS promoter inh cell count: also measured in INS promoter inh; calls as there; normalized cell count, %; measured here: cell count, toxicity; reference of the scale not given here;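 cells exposed to compound for 48 h; stained nuclei by imaging scaled within each plate; lower means fewer cells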
HSV replic up primary fold: second read-out of HSV replic up, no call of its own (marks repeat the call); fold increase; compound at 10 µM; measured here: primary screen fold increase 10 uM; tested in PC3 cells;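 GFP signal in the first replicate; 1 = infected wells without compound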
* hit, by the source's call; i = inactive; . = no result given. Rows were taken by chance, and some 1.3% of all compounds hit somewhere here.

SMILES	GALR2 agonist	RGS16-Gao	HSV replic up	HSV replic up primary fold	INS promoter inh	INS promoter inh cell count	PKD1 inh
Cc1ccccc1N1C(=O)C(Oc2ccc(Cl)cc2)C1CNC(C)(C)C (configuration not stated)	0.2	111	i	0.71	0	85	-2
COc1ccccc1C(=O)N1CCN(C(=O)c2ccncc2)CC1	-1.9	102	i	0.89	46	84	-3
O=C(CCC(=O)OC(C(=O)c1ccccc1)c1ccccc1)Nc1ccccc1 (configuration not stated)	-2.5	102	i	0.89	18	102	-6
O=C(O)CSC1c2ccccc2C(=O)N1c1ccccc1 (configuration not stated)	-1.3	115	i	0.88	-8	131	-10
CC(C)NC(=O)COc1ccc(/C=N/NS(=O)(=O)c2ccccc2)cc1	-1.6	99	i	0.85	20	112	-3
Cc1ccccc1NC(=O)C(=Cc1ccc(C(=O)O)cc1)C(=O)Nc1ccccc1C	.	97	i	0.63	-28	75	-2
O=C1CCC(C(=O)OCC(=O)c2ccccc2)N1 (configuration not stated)	.	75	i	1.1	-16	99	-7
O=C(c1ccc(-c2ccccc2)cc1)N1CCCC1	-1.3	112	i	0.77	-10	153	-4
CC1(C)CC(=O)C(C=Nc2ccncc2)=C(O)C1	-1.8	.	i	1	-50	83	-7
Cc1cc2c(c(=O)n1CCN(C)C)C(c1ccncc1)C(C#N)=C(N)O2 (configuration not stated)	-0.4	101	i	1	-232	66	-9
CCn1c(-c2cccs2)nc2ccccc21	-1.3	114	i	0.95	.	.	-4
COc1ccccc1-n1c(SCC(=O)NC2CCCCC2)nc2c(c1=O)SCC2	-1.7	101	i	0.97	.	.	-4
Cc1ccc(NC(=O)CN(c2ccc(C)cc2)S(=O)(=O)c2cccc3nonc23)cc1	-1.5	29	i	1.1	29	98	-6
CC1(C)CC(=O)C2=C(C1)OC(=O)CC2c1cccs1 (configuration not stated)	.	100	i	0.93	.	.	.
CC1(C)Cc2nc(Cl)c(C(=O)O)cc2CO1	.	103	i	1.5	.	.	0
COCCNC(=O)C(NC(=O)C1CCCCC1)C12CC3CC(CC(C3)C1)C2 (configuration not stated)	.	98	i	1.1	.	.	2
CCOC(=O)c1cnc2nc(NCc3ccc(OCc4ccccc4)cc3)[nH]n2c1=O	-1.5	119	i	1.2	.	.	-11
CC1=NN2C(=N)/C(=C\c3cc(C)n(-c4ccccc4)c3C)C(=O)N=C2S1	.	103	i	0.97	-56	48	1
O=C1CN2C(=Nc3ccc(Cl)cc3C2c2ccccc2)CN1 (configuration not stated)	-1.9	103	i	0.72	14	119	-11
O=C(Nc1nc2ccccc2s1)C1c2ccccc2Oc2ccccc21	-1.1	101	i	0.84	.	.	9
O=C1CC(Nc2ccc(N3CCOCC3)cc2)C(=O)N1c1cccc(C(F)(F)F)c1 (configuration not stated)	-2.3	104	i	0.82	.	.	-7
COC(=O)c1[nH]c2ccc(F)cc2c1NC(=O)Nc1ccc(OC)cc1	-4.7	106	i	0.98	15	150	-2
CCC(CC)NC(=O)Nc1ccccc1C	.	100	i	1.1	32	76	7
Cn1ncc2c1ncn1nc(CCc3ccccc3)nc21	-1.9	122	i	0.93	.	.	-2
CCn1c(SCC(=O)c2cc(C)n(C)c2C)nnc1-c1ccccc1	-2.0	102	i	0.9	6	122	-4
CC(C)C12CN(C(=O)c3ccccc3[N+](=O)[O-])CC(C(C)C)(CN(C(=O)c3ccccc3[N+](=O)[O-])C1)C2=O	.	100	i	1	.	.	.
CCOC(=O)N1CCN(C(=O)CS(=O)(=O)c2cn(Cc3cccc(F)c3)c3ccccc23)CC1	-2.3	106	i	0.95	27	43	-7
c1ccc(CN2CCC(Nc3nc(-c4cccs4)nc4ccccc34)CC2)cc1	.	100	i	0.7	.	.	-2
O=C(O)c1ccccc1C(=O)Nc1ccc(-c2csc(-c3ccccc3)n2)cc1	0.7	107	i	0.99	13	123	-5
CC(=O)c1c(C(C)=O)c(C)n(-c2nc(-c3ccc(C)c(C)c3)c(C)s2)c1C	2.0	107	i	0.84	-51	100	1
COc1ccc(C2c3sc(=O)[nH]c3SC3C4CCC(C4)C23)cc1 (configuration not stated)	-0.2	87	i	0.97	4	91	-5
O=C(O)c1ccc(-c2nc(-c3ccc(Cl)cc3Cl)cs2)cc1	.	98	i	0.95	-88	124	-1
O=C(C(c1ccccc1)c1ccccc1)N1CCN(CC(O)COc2ccccc2)CC1 (configuration not stated)	-1.1	95	i	0.81	.	.	-7
CCCCC(=O)NS(=O)(=O)c1ccc(NS(C)(=O)=O)cc1	-0.5	100	i	1.1	-6	95	-4
COC(=O)c1nn(-c2ccccc2)c(Cl)c1/C=N/OC(=O)c1ccc(Cl)c(Cl)c1	-1.4	103	i	1.2	25	85	0
COc1ccc(C(OC(=O)c2ccco2)C(=O)NCC2CCCO2)cc1 (configuration not stated)	-1.7	69	i	0.9	-40	87	-19
O=C(CCS(=O)(=O)Cc1ccccc1)NC1CCCCC1	0.0	98	i	0.85	-50	87	-6
CCOC(=O)Cc1csc(NC(=O)Cc2ccccc2[N+](=O)[O-])n1	.	97	i	0.96	14	115	1
O=C(Nc1ccccc1)C1=C[C@@H](C2CC2)C[C@@H](OCc2ccc(CO)cc2)O1	.	101	.	.	.	.	-2
CCn1c(=O)c2c(nc(SCc3ccccn3)n2C)n(C)c1=O	0.0	88	i	0.88	16	82	-4
CCOCCn1c(SC(C)C(C)=O)nc2c1c(=O)[nH]c(=O)n2C (configuration not stated)	.	103	i	0.93	.	.	.
CCC(Cc1ccccc1)NC(=O)CSc1ccsc1[N+](=O)[O-] (configuration not stated)	-2.9	102	i	1.1	6	50	-8
O=C(c1nn(Cc2ccccc2)c(=O)c2ccccc12)N1CCc2ccccc2C1	0.1	98	i	0.89	-106	65	-8
Cc1ccc(SCC(=O)N2CCc3ccccc32)cc1	-1.5	94	i	0.97	32	115	-1
COc1ccc(CCNc2nnc(C)c(=O)[nH]2)cc1OC	-2.1	99	i	0.84	-421	62	0
NC(=O)C1CCCN(C(=S)Nc2ccccc2)C1 (configuration not stated)	-1.2	105	i	0.98	38	212	8
Cc1c(C(=O)NCCCc2ccccc2)cccc1[N+](=O)[O-]	-0.7	99	i	1	-53	108	2
OC1(c2ccccn2)COc2ccccc2O1 (configuration not stated)	.	99	i	1.1	.	.	.

Single values from above:
Under PKD1 inh, O=C1CCC(C(=O)OCC(=O)c2ccccc2)N1 (configuration not stated) has -7
Under PKD1 inh, COc1ccc(CCNc2nnc(C)c(=O)[nH]2)cc1OC has 0
Under GALR2 agonist, O=C1CC(Nc2ccc(N3CCOCC3)cc2)C(=O)N1c1cccc(C(F)(F)F)c1 (configuration not stated) has -2.3
Under INS promoter inh, Cc1ccc(NC(=O)CN(c2ccc(C)cc2)S(=O)(=O)c2cccc3nonc23)cc1 has 29
Under GALR2 agonist, O=C(C(c1ccccc1)c1ccccc1)N1CCN(CC(O)COc2ccccc2)CC1 (configuration not stated) has -1.1
Under RGS16-Gao, CCC(CC)NC(=O)Nc1ccccc1C has 100
Under RGS16-Gao, O=C(CCS(=O)(=O)Cc1ccccc1)NC1CCCCC1 has 98

Remaining list, next part:
SMILES	GALR2 agonist	RGS16-Gao	HSV replic up	HSV replic up primary fold	INS promoter inh	INS promoter inh cell count	PKD1 inh
O=C1CN(C(=O)/C=C/c2cccc(Cl)c2)c2ccccc2N1	.	82	i	0.92	.	.	-1
CC(C)c1ccc(NC(=O)COC(=O)c2c[nH]c(=O)[nH]c2=O)cc1	-2.1	49	i	1.1	43	83	1
C(=N\n1cnnc1)/c1ccccn1	-1.3	96	i	0.94	.	.	3
Cc1ccc(OC(=O)c2ccc(N3CCOCC3)c([N+](=O)[O-])c2)cc1	-1.3	98	i	0.98	-23	63	3
CCc1c(C)sc(NC(=O)c2cc(-c3cc(OC)ccc3OC)on2)c1C#N	-2.0	94	i	0.93	25	71	5
Cc1ccc(C)c(N2CCN(CCCNC(=O)Cn3cc4c(n3)CCCCC4)CC2)c1	-1.0	109	.	.	.	.	0
COc1ccc2[nH]c(C)c(C(=O)CN3CCOCC3)c2c1	-1.2	98	i	0.93	.	.	2
CC(=O)Oc1ccc2cc(-c3ccccc3)c(=O)oc2c1	.	109	i	1	.	.	.
CCOc1ccccc1CNC(=O)c1ccc(Sc2ccc(Cl)cc2)c(NC(C)=O)c1	-1.8	107	i	0.87	-44	91	-10
Cc1ccc(/C([O-])=C(/C(=S)NCc2ccco2)[n+]2ccccc2)cc1[N+](=O)[O-]	.	94	i	0.94	.	.	-4
COc1ccc(S(=O)(=O)CCc2nnc(NC(=O)c3cccs3)s2)cc1	1.4	-4	i	0.85	4	95	0
O=C(Cc1cn2ccsc2n1)Nc1nc2c(s1)CCCC2	-3.1	100	i	0.88	.	.	-8

Record cards, from the list above:
CCn1c(=O)c2c(nc(SCc3ccccn3)n2C)n(C)c1=O reads GALR2 agonist: 0.0; RGS16-Gao: 88; HSV replic up: i; HSV replic up primary fold: 0.88; INS promoter inh: 16; INS promoter inh cell count: 82; PKD1 inh: -4
COc1ccc(C(OC(=O)c2ccco2)C(=O)NCC2CCCO2)cc1 (configuration not stated) reads GALR2 agonist: -1.7; RGS16-Gao: 69; HSV replic up: i; HSV replic up primary fold: 0.9; INS promoter inh: -40; INS promoter inh cell count: 87; PKD1 inh: -19

Continuation:
SMILES	GALR2 agonist	RGS16-Gao	HSV replic up	HSV replic up primary fold	INS promoter inh	INS promoter inh cell count	PKD1 inh
N#CCSc1ccc(-c2nc3ccccc3[nH]2)cn1	.	100	i	1.1	90*	88*	4
CCN1C(=O)c2ccccc2S(=O)c2ccc(C(=O)N3CCCCCC3)cc21 (configuration not stated)	-1.8	78	.	.	.	.	0
CCOC(=O)c1ccccc1OCc1cc(/C=N/n2cncn2)ccc1OC	3.8	101	i	0.75	-26	80	-3
O=[N+]([O-])c1cc(/C=N/O)ccc1Oc1cccc(Cl)c1	.	98	i	1.1	54	98	5
O=C(CSc1nnnn1-c1ccccc1)c1ccco1	.	111	i	0.93	-27	139	-1
Cc1cc(C)nc(SCC(=O)NC2=NN=C(c3ccc(Br)cc3)CS2)n1	0.1	100	i	0.68	-23	76	-2
O=C1c2ccccc2NC(c2c(Cl)cccc2Cl)N1Cc1ccccc1 (configuration not stated)	-2.1	105	i	0.96	-51	30	-8
CCOC(=O)CNC(=S)N(CCCN1CCCCCC1)Cc1cccs1	.	99	i	1	.	.	0
CCN(CC)C(=O)CSc1nc2cc3c(cc2c(=O)n1Cc1ccco1)OCO3	.	103	i	1	.	.	1
CCOC(=O)CNC(=O)Nc1ccccc1C(=O)OC	-1.8	104	i	0.98	6	49	5

Screening results (PubChem BioAssay)
